High-throughput results (PubChem)
HSD17B inh: inhibitors of human HSD17B10 dehydrogenase. Q99714. recombinant HSD17B10, NADH fluorescence kinetic; many of its hits are not listed in these tables. Potency, µM (series often up to 57.1 µM), for inactives: top-dose activity change, negative = inhibition, actives largely listed as inhibitors. 75,000 compounds, 7.6% hits; active = well fitted inhibition curve with a large enough effect; inconclusive = small, poorly fitted or top-dose-only effect; inactive = no such curve, though single readings can be large or run the other way;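 note: the protocol describes HADH2 (HSD17B10) and not the HSD17B4 of the title; nearly all actives have a fitted effect of over 70% in size; most hits overshoot -100% by far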
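Activity followed as NADH fluorescence increase (ex 360, em 450 nm) every 30 seconds for 4 min, using final 90 uM beta-hydroxybutyryl CoA and 1 mM NAD+. Recombinant His-tagged enzyme, 20 nM, pH 9.0 Tris buffer, 15 min compound preincubation.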
* = called active by the depositor; ? = inconclusive; [ ] = dose if it differs, or a comment. % is set by controls: 0 for no effect and ±100 for the full control effect; potency is the fitted concentration of half-maximal effect.

Start of the data: the first 4 entries as a preview:
SMILES | HSD17B inh
CCc1nnc(NC(=O)CSc2nnc(-c3ccc(OC)cc3)n2C)s1 | 10%
CC1Oc2ccccc2N(CC(=O)N2CCCc3ccccc32)C1=O (stereo not drawn) | 5%
CCCNC(=O)c1cccc(COCC(F)(F)C(F)F)c1 | 2%
N/C(CC(=O)Nc1cc(C(F)(F)F)ccc1Cl)=N\O | 1%[11.4 µM]

The whole of this part, previewed entries included:
SMILES | HSD17B inh
CCc1nnc(NC(=O)CSc2nnc(-c3ccc(OC)cc3)n2C)s1 | 10%
CC1Oc2ccccc2N(CC(=O)N2CCCc3ccccc32)C1=O (stereo not drawn) | 5%
CCCNC(=O)c1cccc(COCC(F)(F)C(F)F)c1 | 2%
N/C(CC(=O)Nc1cc(C(F)(F)F)ccc1Cl)=N\O | 1%[11.4 µM]
Oc1ccccc1C1=NCCNC(C(F)(F)C(F)F)=C1 | -6%
c1ccc(COc2cccc(CN3CCN(c4ccccn4)CC3)c2)cc1 | -12%
CCC(C)NC(=O)c1ccc(NC(=O)C2CCCO2)cc1 (stereo not drawn) | -3%
CNC(=O)CSc1nnc(COc2ccc(Cl)cc2)n1CCOC | -5%
Cc1cccn2c(=O)c3cc(C(=O)Nc4ccc(N(C)C)cc4)n(C)c3nc12 | -21%
COc1ccccc1-c1nnc(SCc2ccccn2)n1C | 0%
CCOC(=O)c1c(C)[nH]c2cc(Br)c(O)cc12 | -3%
CC(C)C1N=C2c3ccccc3N=C(SCc3cc(=O)n4cc(Cl)ccc4n3)N2C1=O (stereo not drawn) | -21%
CCOc1ncccc1C(=O)OCC(=O)Nc1ncc(C(F)(F)F)cc1Cl | -1%
COc1ccc(OC)c(NC(=O)c2nnn(CCc3ccccc3)c2N)c1 | ?
C=CCn1c(SCC(=O)N2CCCC2)nc2cc(C(=O)NCC3CCCO3)ccc2c1=O (stereo not drawn) | -17%
COc1ccc(NC(=O)NCCN2C(=O)C3C4C=CC(C4)C3C2=O)cc1 (stereo not drawn) | 20%
CCOCC(=O)Nc1nnc(Cc2ccc(OC)c(OC)c2)s1 | 3%
COCCNC(=O)c1ccccc1NC(=O)C1COc2ccccc2O1 (stereo not drawn) | -1%
COc1ccccc1N1CCN(Cc2ccsc2)CC1 | 2%
CCn1c(SCc2nc3ccccc3c(=O)[nH]2)nnc1-c1cccnc1 | 1%
Cc1cc(N=Cc2cc(Cl)ccc2O)no1 | -9%
COc1ccc(-c2ccc(-c3noc(-c4ccc(OC)c(OC)c4)n3)c(OC)n2)cc1 | 3.2µM*
COc1ncc2nc(-c3cn(C)c4ccccc34)c(=O)n(Cc3ccc(F)cc3)c2n1 | -22%
Cc1ccc(NC(=O)c2c(C)nc(Nc3nc4ccccc4o3)nc2C)cc1 | -3%
COc1ccccc1NC(=O)N(CCCN1CCOCC1)Cc1cc2cc3c(cc2[nH]c1=O)OCO3 | ?
COc1ccc(OC)c(NC(=O)CC(NCCC2=CCCCC2)C(=O)O)c1 (stereo not drawn) | 6%
COc1ccc(NC(=O)N2CCC(c3ccccc3)C2)c(OC)c1 (stereo not drawn) | 2%
O=C(Nc1cccc(NC(=O)c2nccc3ccccc23)c1)c1ccco1 | -2%
CCOC(=O)C1CCN(C(=O)CN(c2cc(OC)ccc2OC)S(=O)(=O)c2ccccc2)CC1 | 3%
CN1CCN(CCCNC(=O)Cn2ncc3c4ccccc4n(C)c3c2=O)CC1 | ?
CCCC(=O)c1cc(O)c(O)cc1O | 10µM*
CCN1CCCC1CNC(=O)c1cc2c(=O)n(C)c3ccccc3c2n1C (stereo not drawn) | ?
C=CCNC(=O)CSc1ccc(Cl)cc1 | 3%
CC(=O)NC(O)C(=O)c1ccco1 (stereo not drawn) | -4%
CCn1c(SCC(=O)c2cc(OC)ccc2OC)nnc1C(C)C | -12%
Nc1nnc(-c2cccnc2)s1 | -9%
CC(=O)[C@H]1CC[C@H]2[C@@H]3C=CC4=CC(=O)CC[C@@]4(C)[C@H]3CC[C@]12C | -1%[25.6 µM]
Cc1nn(C)c(C)c1CNC(=O)c1nn2c(c1Cl)NC(c1cccs1)CC2C(F)(F)F (stereo not drawn) | 1%
CCCCC(=O)NC1(C(F)(F)F)C(=O)N(Cc2ccco2)C(C)=C1C(=O)OC (stereo not drawn) | 12%
Cc1ccc(C(=O)Nc2ccc(S(=O)(=O)O)c3cc(S(=O)(=O)O)cc(S(=O)(=O)O)c23)cc1NC(=O)c1cccc(NC(=O)Nc2cccc(C(=O)Nc3cc(C(=O)Nc4ccc(S(=O)(=O)O)c5cc(S(=O)(=O)O)cc(S(=O)(=O)O)c45)ccc3C)c2)c1 | 2µM*
CCN1CCC[C@H]1CNC(=O)c1c(O)c(Cl)cc(Cl)c1OC | ?
COc1cc([C@@H](O)CO)ccc1OS(=O)(=O)O | 7%
CCCS(=O)(=O)C(=C1Nc2ccccc2N1)S(=O)(=O)CCC | 1%
CCCCCCC1/C(=N/O)CCC1C(=O)OC (stereo not drawn) | 3%
CSc1nsc(SC)c1NC(=O)OC1CCCCC1 | -9%
N#Cc1cc2c(nc1SCC(O)CS(=O)(=O)Cc1ccccc1)CCCC2 (stereo not drawn) | -7%
C[C@H]1C2=C3C(CC[C@H]4C(OCc5ccc(F)cc5C(F)(F)F)OC[C@](C)([C@@H]34)N(C(=O)OC(C)(C)C)C2)C2COC(=O)OCC21 (stereo partly drawn) | -24%
N#CCSc1nc(Nc2ccc3c(c2)OCO3)c2ccccc2n1 | -7%
CC(=O)c1cn(CC(=O)Nc2ccccc2)c2ccccc12 | 4%
COc1ccc(NC(=O)Cn2nnc(-c3ccccc3F)n2)cc1Cl | -3%
Carrying on:
SMILES | HSD17B inh
CC(C)OC(=O)CSc1nnc(CNc2nc(-c3ccccc3)cs2)n1C | -16%
CC(=O)OC[C@@H]1O[C@H](C/C=N\OCC[C@H]2C=C[C@H](OC(C)=O)[C@@H](COC(C)=O)O2)C=C[C@@H]1OC(C)=O | 1%[11.4 µM]
CN(C)S(=O)(=O)c1ccc(C(=O)Nc2ccc(F)cc2F)cc1 | 3%
O=c1cc(N2CCc3ccccc32)[nH]c(=O)n1-c1ccccc1 | -4%
N#C/C(C(=O)N1CCOCC1)=C1/SC=C(c2ccccc2)N1c1ccccc1 | 19%
COc1ccc(NC(=O)COC(=O)c2cnccn2)cc1Cl | 2%
O=C(CSc1nnnn1-c1ccc2c(c1)OCO2)NCc1cccs1 | 6%
C=CCSc1nc(N)c2c(C)c(C)sc2n1 | 92%[activator]
Cc1cccc(Nc2nc3c(c(=O)n(C)c(=O)n3C)n2Cc2ccccc2)c1 | -20%
CCCOn1nnnc1-c1ccccc1 | -9%

4 of the compounds above, as labelled records:
> O=C(CSc1nnnn1-c1ccc2c(c1)OCO2)NCc1cccs1
  HSD17B inh = 6%
> C=CCSc1nc(N)c2c(C)c(C)sc2n1
  HSD17B inh = 92%[activator]
> Cc1cccc(Nc2nc3c(c(=O)n(C)c(=O)n3C)n2Cc2ccccc2)c1
  HSD17B inh = -20%
> CCCOn1nnnc1-c1ccccc1
  HSD17B inh = -9%

Remaining list, next part:
SMILES | HSD17B inh
CCOC(=O)C1=C(N)N(c2ccccc2Oc2ccccc2)C(=O)C1 | 9%
COc1ccc(CNC(=O)CSc2nnnn2-c2ccccc2)cc1 | 0%
CCOC(=O)c1c(C#N)c(SCC(=O)Nc2ccc(OC)cc2)nc2c1CN(CC)CC2 | -3%
O=C(O)c1ccccc1NS(=O)(=O)c1cccc(C(F)(F)F)c1 | 4%
COc1ccc(CCNC(=O)c2nnn(-c3ccc4c(c3)OCCO4)c2N)cc1OC | 4%
COCCNC(=O)CN(CC1CCCO1)C(=O)CCC(=O)Nc1ccccn1 (stereo not drawn) | -2%
CCOc1cccc(-c2nnc3sc(COc4ccc(OC)cc4)nn23)c1 | -7%
COCCN(CCOC)c1ncc(Cl)c(C(=O)c2c(C)cc3ccccn23)n1 | -13%
CCN1CCN(c2cc(C)c3cc(NC(=O)c4cncc(Br)c4)ccc3n2)CC1 | -6%
Cc1nn(C)c(C)c1S(=O)(=O)N1CCC(C(=O)NC2CCCCCC2)CC1 | 3%
CCN1CCN(Cc2cc(=O)oc3cc4c(cc23)CCC4)CC1 | -21%
COc1ccc(-n2c(=O)c3c4c(sc3n3c(C)nnc23)COC(C(C)C)C4)cc1 (stereo not drawn) | 0%
O=C1CCCC2=C1C(c1ccccc1)C1=C(CCCC1=O)O2 | 8%
CCSc1nnc(NC(=O)CCNS(=O)(=O)c2cc(Br)cnc2N)s1 | -16%
COc1ccc2[nH]cc(CCNc3ccnc(-c4cccc(NS(C)(=O)=O)c4)n3)c2c1 | -13%
CCOC(=O)C1=C(c2ccccc2)NC(SCC(=O)Nc2cccc(C)c2)=C(C#N)C1c1ccco1 (stereo not drawn) | ?
Cc1ccc2c(c1)-c1c(cnn1CC(=O)NC(C)CCc1ccco1)CO2 (stereo not drawn) | 3%
COc1ccc(NC2=CC(=O)CC(C)(C)C2)cc1OC | 2%
CO/N=C(/C)CCC(=O)OC[C@@H]1O[C@H](c2ccccc2)C=C[C@@H]1Oc1ccc(OC)cc1 | 1%[11.4 µM]
CCS(=O)(=O)N1CCN(C(=O)c2ccc(-c3ccccc3)cc2)CC1 | -2%
CN(C)C(=O)N1CCCC(C(=O)NCc2ccccc2)C1 (stereo not drawn) | 3%
COc1ccc(S(=O)(=O)NCc2ccc(C(=O)N3CCN(c4ccccn4)CC3)cc2)cc1 | -2%
O=S(=O)(O)c1ccc2c(N=Nc3c(O)ccc4ccccc34)cccc2c1 | ?
O=C(O)CCN1C(=O)NC2(CCCC2)C1=O | 5%
CCCCCc1c2c(cc(O)c1C(=O)O)OC(=O)c1c(cc(OC)cc1C(=O)CCCC)O2 | ?
Cc1cc(C)nc(SC2CCOC2=O)n1 (stereo not drawn) | -2%
CC(Cc1c[nH]c2ccccc12)NC(=O)C1CCCNC1=O (stereo not drawn) | 2%
O=c1c2c3c(sc2ncn1/N=C/c1ccc(Br)o1)CCCC3 | 15%
CCn1[nH]c(=O)c(=Nc2c(C)n(C)n(-c3ccccc3)c2=O)cc1-c1ccc(Cl)cc1 | 4%
COc1ccc(NS(=O)(=O)c2cccs2)c(OC)c1 | 4%
Nn1c(SCc2nc3ccccn3c2Br)nnc1-c1cccnc1 | -2%
Cc1[nH]c2c(Cl)cccc2c(=O)c1CN1CCCC1 | 0%
COc1ccccc1N(C)S(=O)(=O)c1ccc(C(=O)NC2=NCCS2)cc1 | 2%
O=C(CCc1nc(-c2ccccc2)no1)N1CCCC1 | 1%
Cn1c(=O)n(C/C=C/c2ccccc2)c(=O)c2c1nc1n2CCCN1Cc1ccccc1 | ?
CCOc1ccccc1Nc1nnc(Cc2ccccc2Cl)c(=O)[nH]1 | 10%
CCOC(=O)C1CCCN(C2CC(=O)N(c3cccc(C)c3)C2=O)C1 (stereo not drawn) | -20%
Cc1nn2cc(-c3ccc(-c4ccccc4)cc3)nc2s1 | ?
CCCS(=O)(=O)NCCc1cc2cc(C)c(C)cc2[nH]c1=O | ?
N#Cc1ccc(CSc2nc(-c3cccs3)c3c(c2C(=O)O)CCCC3)cc1 | ?

3 successive entries already listed:
SMILES | HSD17B inh
Cc1nn2cc(-c3ccc(-c4ccccc4)cc3)nc2s1 | ?
CCCS(=O)(=O)NCCc1cc2cc(C)c(C)cc2[nH]c1=O | ?
N#Cc1ccc(CSc2nc(-c3cccs3)c3c(c2C(=O)O)CCCC3)cc1 | ?

Next part:
SMILES | HSD17B inh
CN1C(=O)C2ON(c3ccccc3)C(c3cccs3)C2C1=O (stereo not drawn) | -4%
COc1ccc(O[C@H]2C=C[C@@H](c3ccccc3)O[C@H]2COC(=O)CC/C(C)=N\O[C@@H](C)CN2CCCCc3nc(C)c(C)cc32)cc1 | 9%[11.4 µM]
Cc1ccc(S(=O)(=O)Cn2nnnc2CN(Cc2ccco2)CC2CCCO2)cc1 (stereo not drawn) | -3%
C/C(=C\C(=O)c1ccc(C)o1)Nc1ccc(C(=O)O)cc1C | -5%
CC(=O)NCC(=O)N[C@H](CCC(=O)O)C(=O)O | 1%
Cc1nc(NCc2ccccc2)c2nc(-c3ccccc3)n(CCCN3CCOCC3)c2n1 | 25µM*
c1ccc2[nH]c(NCCCN3CCOCC3)nc2c1 | 6%
CCOC(=O)c1sc(NC(=O)c2cccc(S(=O)(=O)N3CCN(C)CC3)c2)cc1C | -4%
CCc1ccc(NS(=O)(=O)c2ccc(Cl)cc2OC)cc1 | -8%
CN(C)S(=O)(=O)c1ccc(Nc2ccc(O)c3c2C(=O)c2c([N+](=O)[O-])ccc(O)c2C3=O)cc1 | -5%[11.4 µM]
Cc1ccccc1NC(=O)Cc1nnc(SCC(=O)N2CCN(c3ccccc3)CC2)n1C | -24%
CCOC(=O)Cn1c(=O)oc2cc(S(=O)(=O)Nc3ccc(F)cc3)ccc21 | 4%
COc1ccc(OC)c2[nH]c(=O)c(CCNC(=O)c3ccc(S(=O)(=O)N4CCCC4)cc3)cc12 | -5%
O=C(CN(C(=O)CCC(=O)Nc1nccs1)c1ccccc1F)NCC1CCCO1 (stereo not drawn) | 1%
CC1CCN(c2ccc(C(=O)NCc3cccs3)cn2)CC1 | -7%
Cc1ccc(P(=Nc2ccccc2)(N2CCOCC2)N2CCOCC2)o1 | 13%
COC(=O)c1oc2ccc(Br)cc2c1-n1cccc1 | -11%
Cc1cc(C)n(-c2nc3c(c(=O)n(Cc4ccc(Cl)c(Cl)c4)c(=O)n3C)n2C)n1 | 8%
Cc1ccc(-n2c(=O)[nH]cc(C(=O)Nc3ccc4c(c3)OCCO4)c2=O)cc1C | 7%

Only part of the results is shown (hit frequency here may not be typical).
